Rce1 inh = blocks yeast Ras-converting enzyme | Q03530 | yeast membranes, quenched prenylated peptide cleavage fluorescence | calls only | 290,000 compounds, 0.27% hits;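 active means fall in fluorescence gain of 50% or more versus controls, with final raw signal at or below 3038400; inconclusive means same 50% fall but final raw signal above 3038400; inactive means fall in fluorescence gain under 50%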;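 further: plate controls were neutral control wells for no effect and wells lacking membranes for full effect; tested at 10 µM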
eIF4H inh = inhibitors of RNA binding by human eIF4H; eIF4H fluorescence polarization binding assay; inhibition, % at 35 µM; 290,000 compounds, 0.94% hits; AID 2012;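 active means 50% or more with normal probe brightness, or confirmed in later tests; inconclusive means above 50% with abnormal brightness, or retests that disagree; inactive means below 50% or failed in later tests; about a fifth of its hits are not listed in these tables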;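 further: calls also rest on retests at 20 µM and on dose response follow-up; 0% = protein and probe with vehicle and 100% = probe without protein; strong numbers were not always called active; many hits fall short of the cut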
CSC inhib = cancer stem cell inhibition; cancer stem cell-like cells viability, luminescence; 300,000 compounds, 1.1% hits; inhibition, % at 7.5 µM;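 active means mean at 75% or more and at least half the replicates too; inconclusive means mean and replicates disagree; tested in HMLE shEcad cells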;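 further: 0% = median of negative and 100% = median of positive control wells; the first replicate is given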
MT1-MMP act inh = blocks activation of human MT1-MMP; P50281; HT1080 RFP-PRO-GFP cells, GFP/RFP ratio fluorescence, overnight; percent of plate control window, DMSO zero; GFP/RFP ratio change, % at 20 µM; 360,000 compounds, 0.061% hits;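 active means GFP/RFP ratio change of at least 30% with cell ATP level not reduced by more than half and red fluorescence within 50% of control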; further: strong numbers were not always called active
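Material: RFP-PRO-GFP reporter HT1080 cells. Dosing: single-point 20 µM compound, 1% DMSO. Controls: DMSO and RFP-L50D-GFP cell wells. Timing: cells overnight before dosing, compound overnight, 37 °C, 5% CO2. Measure: GFP/RFP fluorescence ratio.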
PABP polyA inh = PABP-poly(A) binding inhibition. P11940. PABP-poly(A) RNA binding, fluorescence polarization. inhibition, % at 35 µM. 290,000 compounds, 1% hits. AID 2014;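 active means 50% or more with normal probe brightness, or confirmed in later tests; inconclusive means above 50% with abnormal brightness, or retests that disagree; inactive means below 50% or failed in later tests; about a fifth of its hits are not listed in these tables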;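 further: calls also rest on retests at 20 µM and on dose response follow-up; controls were probe without protein and protein plus probe with vehicle; some compounds called inactive have numbers as strong as hits; many hits fall short of the cut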
Target sequence (P11940 whole entry, looked up): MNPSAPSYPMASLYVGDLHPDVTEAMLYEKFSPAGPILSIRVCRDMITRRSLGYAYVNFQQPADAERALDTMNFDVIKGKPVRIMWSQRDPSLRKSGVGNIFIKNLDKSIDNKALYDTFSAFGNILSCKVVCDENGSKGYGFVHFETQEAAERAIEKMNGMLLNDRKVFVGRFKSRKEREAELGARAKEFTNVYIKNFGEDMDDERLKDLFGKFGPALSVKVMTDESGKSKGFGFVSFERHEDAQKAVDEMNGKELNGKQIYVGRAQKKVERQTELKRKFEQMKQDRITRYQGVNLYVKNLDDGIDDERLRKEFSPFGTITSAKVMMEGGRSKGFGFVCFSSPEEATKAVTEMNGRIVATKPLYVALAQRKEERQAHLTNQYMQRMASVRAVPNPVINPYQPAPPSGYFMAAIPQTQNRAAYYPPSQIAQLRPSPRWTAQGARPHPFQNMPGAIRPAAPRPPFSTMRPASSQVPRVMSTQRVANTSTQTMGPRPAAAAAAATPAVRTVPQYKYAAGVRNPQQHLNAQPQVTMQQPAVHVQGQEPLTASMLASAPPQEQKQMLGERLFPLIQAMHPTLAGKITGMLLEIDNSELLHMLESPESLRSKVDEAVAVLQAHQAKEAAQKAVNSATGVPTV
UUG fidelity = modulators of start codon recognition fidelity in yeast; S. cerevisiae UUG-firefly luciferase reporter, luminescence/redox ratio; activity score, % at 18.7 µM; 350,000 compounds, 0.13% hits; AID 602363;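 active means replicate mean at a twofold rise or more, about +100% in these data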;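 further: firefly luciferase made from a UUG start codon reports start codon fidelity; reporter light over untreated wells divided by growth signal over untreated wells; some hits fall short of that in this replicate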
HIV Env fusion = HIV envelope-mediated fusion inhibition; AID 651610; inhibition, % at 12.3 µM; HeLa-JRFL Env/CEM21 cell fusion, luciferase; 360,000 compounds, 1.1% hits;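 active means mean replicate inhibition score of at least 50 and every replicate individually at or above 50; inconclusive means only one of the two criteria met; inactive means mean below 50 and not all replicates reaching 50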;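 further: 0% = plate neutral controls and 100% = maraviroc near 300 nM; one replicate is shown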
MT1-MMP act inh RFP = second read-out of MT1-MMP act inh, no call of its own (marks repeat the call); RFP signal change, %; measured here: RFP expression control read;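 0 = vehicle wells; hits needed this value within 50% of zero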
* marks the source's active call; other numbers are inactive results.

For COc1ccc(-c2nc(CS(=O)(=O)CC(=O)NC3CCCCC3C)c(C)o2)cc1 (stereo not drawn) the results were Rce1 inh inactive, eIF4H inh -4, CSC inhib -4, MT1-MMP act inh -1, PABP polyA inh -6, HIV Env fusion 10 and MT1-MMP act inh RFP -7.
`Cc1c(Cl)cccc1Nc1nc(N)nc(CN2CCc3ccccc3C2)n1` gave Rce1 inh inactive, eIF4H inh 5, CSC inhib 18, MT1-MMP act inh 8, PABP polyA inh 2, UUG fidelity -23, HIV Env fusion -93 and MT1-MMP act inh RFP 1.
`COc1ccc(-c2[nH]n(-c3ccc([N+](=O)[O-])cc3)c(=O)c2C=NCC2CCCO2)cc1` (stereo not drawn) gave eIF4H inh -5, CSC inhib -4, MT1-MMP act inh 14, PABP polyA inh -9, HIV Env fusion 24 and MT1-MMP act inh RFP -9.
`O=C(NCc1ccccc1)c1ccc(S(=O)(=O)N2CCCCCC2)cc1` gave MT1-MMP act inh 1, UUG fidelity -20, HIV Env fusion 21 and MT1-MMP act inh RFP -2.
CCC1=Nc2cc(C(=O)NCC3CCCO3)ccc2Sc2ccc(Cl)cc21 (stereo not drawn) was read as Rce1 inh inactive, eIF4H inh -5, CSC inhib 58, MT1-MMP act inh -5, PABP polyA inh -1, UUG fidelity -15, HIV Env fusion -6 and MT1-MMP act inh RFP -11.
Screening Cc1ccc(-n2c3c(c(=O)[nH]c2=O)C(NS(=O)(=O)c2ccc(Cl)cc2)(C(F)(F)F)C(=O)N3)cc1 (stereo not drawn) returned Rce1 inh inactive, eIF4H inh -1, CSC inhib -18, MT1-MMP act inh -4, PABP polyA inh 26, UUG fidelity -13, HIV Env fusion -2 and MT1-MMP act inh RFP 2.
`COc1ccc(C)cc1NC(=S)NNC(=O)c1ccccc1Cl` gave eIF4H inh 23, CSC inhib 10, MT1-MMP act inh 10, PABP polyA inh 0, UUG fidelity -33, HIV Env fusion -35 and MT1-MMP act inh RFP 4.
`O=C(Cc1ccc(F)cc1)Nc1cccc(S(=O)(=O)N2CCCC2)c1` gave Rce1 inh inactive, CSC inhib -10, MT1-MMP act inh 2, HIV Env fusion 63* and MT1-MMP act inh RFP -2.
`COc1ccc(NC(=O)/C(N=Nc2cc(S(=O)(=O)Nc3ccc(OC)cc3)ccc2OC)=C(\C)O)cc1` gave Rce1 inh inactive, eIF4H inh -10, CSC inhib 13, MT1-MMP act inh 3, PABP polyA inh -2, HIV Env fusion 1 and MT1-MMP act inh RFP -5.
For Cc1cccc(OCCCn2c(=O)oc3ccccc32)c1 the results were Rce1 inh inactive, eIF4H inh 5, CSC inhib -6, MT1-MMP act inh -2, PABP polyA inh -2, UUG fidelity -1, HIV Env fusion -2 and MT1-MMP act inh RFP 2.
Screening CCCc1ccc(-c2csc(NC(=O)Cc3cccs3)n2)cc1 returned Rce1 inh inactive, eIF4H inh 8, CSC inhib 12, MT1-MMP act inh -4, PABP polyA inh 2, UUG fidelity -20 and MT1-MMP act inh RFP -23.
COc1cc(OC)c2c(-c3ccccc3)cc(=O)oc2c1C(CCN1CCCCC1)c1ccc(N(C)C)cc1 (stereo not drawn) was read as Rce1 inh inactive, eIF4H inh -5, CSC inhib -1, MT1-MMP act inh 6, PABP polyA inh -11, UUG fidelity 4 and MT1-MMP act inh RFP 2.

The closing two compounds of the part above lead into the next:
Screening CCCc1ccc(-c2csc(NC(=O)Cc3cccs3)n2)cc1 returned Rce1 inh inactive, eIF4H inh 8, CSC inhib 12, MT1-MMP act inh -4, PABP polyA inh 2, UUG fidelity -20 and MT1-MMP act inh RFP -23.
COc1cc(OC)c2c(-c3ccccc3)cc(=O)oc2c1C(CCN1CCCCC1)c1ccc(N(C)C)cc1 (stereo not drawn) was read as Rce1 inh inactive, eIF4H inh -5, CSC inhib -1, MT1-MMP act inh 6, PABP polyA inh -11, UUG fidelity 4 and MT1-MMP act inh RFP 2.
`COc1cc(NC(=O)C2=CC(c3ccco3)=NS(=O)(=O)N2C)cc(OC)c1OC` gave Rce1 inh inactive, CSC inhib -3, MT1-MMP act inh 2, UUG fidelity -7, HIV Env fusion 3 and MT1-MMP act inh RFP 2.
Cc1ccc2cc(C)c3nnc(SCC(=O)NCc4ccco4)n3c2c1 was read as Rce1 inh inactive, eIF4H inh 16, CSC inhib 6, MT1-MMP act inh 3, PABP polyA inh 17, UUG fidelity -16 and MT1-MMP act inh RFP 1.
CCC(C)Oc1nc(C)cc(C)c1S(=O)(=O)c1ccccc1C (stereo not drawn) was read as Rce1 inh inactive, eIF4H inh -9, CSC inhib 44, MT1-MMP act inh -6, PABP polyA inh -1, UUG fidelity -5 and MT1-MMP act inh RFP -5.
Screening COc1ccc(N2CC(NS(=O)(=O)c3cccnc3)CC2=O)cc1OC (stereo not drawn) returned Rce1 inh inactive, MT1-MMP act inh 9, UUG fidelity 21, HIV Env fusion -3 and MT1-MMP act inh RFP 1.
`CN(CC(=O)NCc1ccccc1Cl)S(=O)(=O)c1cccs1` gave eIF4H inh 4, CSC inhib 8, MT1-MMP act inh 2, PABP polyA inh -5, UUG fidelity -14, HIV Env fusion 0 and MT1-MMP act inh RFP 5.
`COc1ccc(CNc2ccc(C(=O)O)cc2)cc1` gave Rce1 inh inactive, eIF4H inh -2, CSC inhib -3, MT1-MMP act inh -2, PABP polyA inh -7, UUG fidelity -21, HIV Env fusion -18 and MT1-MMP act inh RFP -2.
For CC(=O)C(Cc1ccccc1)NC(=O)CN1CCN(Cc2ccccc2)CC1 (stereo not drawn) the results were Rce1 inh inactive, eIF4H inh 2, CSC inhib -6, MT1-MMP act inh -1, PABP polyA inh -4, UUG fidelity -8, HIV Env fusion -2 and MT1-MMP act inh RFP 0.
O=C(Nc1cccc(F)c1)Nc1nnc([C@@H]2O[C@H](CO)[C@@H](O)[C@H]2O)s1 was read as MT1-MMP act inh -4, UUG fidelity 8, HIV Env fusion 7 and MT1-MMP act inh RFP -2.
For Cc1ccc(NC(=O)CN(C2=NC3CS(=O)(=O)CC3S2)c2ccccc2)cc1 (stereo not drawn) the results were MT1-MMP act inh 2, UUG fidelity -9, HIV Env fusion 19 and MT1-MMP act inh RFP 7.
COc1ccc(C2CC(c3cccs3)=NN2c2ccc(F)cc2)cc1OC (stereo not drawn) was read as Rce1 inh inactive, eIF4H inh -3, CSC inhib 10, MT1-MMP act inh 0, PABP polyA inh 1, HIV Env fusion 0 and MT1-MMP act inh RFP 2.
Screening O=C(NCCN1CCN(C(=O)c2cccs2)CC1)c1cccs1 returned Rce1 inh inactive, eIF4H inh -4, CSC inhib -8, MT1-MMP act inh -2, PABP polyA inh 6, UUG fidelity -11, HIV Env fusion -31 and MT1-MMP act inh RFP -1.
Screening O=c1c2ccccc2ccc2ccc(P(=O)(O)O)cc12 returned CSC inhib 7, MT1-MMP act inh 2, UUG fidelity -15, HIV Env fusion -5 and MT1-MMP act inh RFP 3.

Compounds from the list above that have an NH in an aromatic ring (two):
`COc1ccc(-c2[nH]n(-c3ccc([N+](=O)[O-])cc3)c(=O)c2C=NCC2CCCO2)cc1` (stereo not drawn) gave eIF4H inh -5, CSC inhib -4, MT1-MMP act inh 14, PABP polyA inh -9, HIV Env fusion 24 and MT1-MMP act inh RFP -9.
Screening Cc1ccc(-n2c3c(c(=O)[nH]c2=O)C(NS(=O)(=O)c2ccc(Cl)cc2)(C(F)(F)F)C(=O)N3)cc1 (stereo not drawn) returned Rce1 inh inactive, eIF4H inh -1, CSC inhib -18, MT1-MMP act inh -4, PABP polyA inh 26, UUG fidelity -13, HIV Env fusion -2 and MT1-MMP act inh RFP 2.

(next part)
For COc1ccc(/C=N/n2c(C)nc3c([nH]c4ccccc43)c2=O)cc1CN1CCCC(C)(C)C1 the results were Rce1 inh inactive, eIF4H inh 1, CSC inhib 1, MT1-MMP act inh 0, PABP polyA inh -37, UUG fidelity -9, HIV Env fusion 12 and MT1-MMP act inh RFP -6.
`COCc1cc(C)nc2sc(C(=O)Nc3ccc(OC)cc3)c(N)c12` gave Rce1 inh inactive, eIF4H inh -4, CSC inhib -12, MT1-MMP act inh 2, PABP polyA inh 6, UUG fidelity -16, HIV Env fusion -146 and MT1-MMP act inh RFP -6.
`CN(C)C(=O)c1ccc(-c2n[nH]c(=O)c3ccccc23)cc1` gave Rce1 inh inactive, eIF4H inh 2, CSC inhib -11, MT1-MMP act inh -7, PABP polyA inh -7, HIV Env fusion 12 and MT1-MMP act inh RFP -3.
Screening CCCc1nn2c(=O)cc(CSCC(=O)Nc3nnc(CC)s3)nc2s1 returned Rce1 inh inactive, eIF4H inh -10, CSC inhib -9, MT1-MMP act inh -1, PABP polyA inh 0, UUG fidelity -2, HIV Env fusion -6 and MT1-MMP act inh RFP 4.
`CNC(=O)NC(=O)COC(=O)CCCSc1nc2ccccc2s1` gave Rce1 inh inactive, eIF4H inh -3, CSC inhib 4, MT1-MMP act inh 2, PABP polyA inh -2, UUG fidelity -22, HIV Env fusion 18 and MT1-MMP act inh RFP 7.
`CCOC(=O)C1=C(COC(=O)c2cccc(N(C)C)c2)NC(=O)NC1C` (stereo not drawn) gave Rce1 inh inactive, CSC inhib -1, MT1-MMP act inh 4, UUG fidelity 2, HIV Env fusion -41 and MT1-MMP act inh RFP 1.
For O=c1c2cc3c(cc2[nH]c(=S)n1Cc1ccco1)OCO3 the results were Rce1 inh inactive, eIF4H inh -4, CSC inhib -12, MT1-MMP act inh -2, PABP polyA inh 3, UUG fidelity -14, HIV Env fusion -63 and MT1-MMP act inh RFP -6.
For CCn1c(COc2ccc(Cl)cc2)nnc1SCc1nc2ccccc2[nH]1 the results were Rce1 inh inactive, eIF4H inh -4, CSC inhib 6, MT1-MMP act inh -5, PABP polyA inh 5, UUG fidelity -24, HIV Env fusion 114* and MT1-MMP act inh RFP -17.
For Cc1ccc(C(C)C)c2oc(=O)cc(-c3ccc(-c4ccc(C(F)(F)F)cc4)cc3)c12 the results were MT1-MMP act inh -12, UUG fidelity -16, HIV Env fusion 15 and MT1-MMP act inh RFP -20.
`COc1ccc(N2C(=O)CC(N3CCC(C(N)=O)CC3)C2=O)cc1` (stereo not drawn) gave Rce1 inh inactive, eIF4H inh 2, CSC inhib 6, MT1-MMP act inh 1, PABP polyA inh 2, UUG fidelity -2, HIV Env fusion -36 and MT1-MMP act inh RFP 1.
For Cc1nc2ccccn2c1C(=O)CSc1cccc(Cl)c1 the results were Rce1 inh inactive, eIF4H inh 5, CSC inhib -7, MT1-MMP act inh 5, PABP polyA inh inconclusive, HIV Env fusion -14 and MT1-MMP act inh RFP -6.
For COc1ccc(S(=O)(=O)NN=C2CCCC2)cc1 the results were Rce1 inh inactive, eIF4H inh -3, CSC inhib -7, MT1-MMP act inh 4, PABP polyA inh -5, HIV Env fusion -1 and MT1-MMP act inh RFP 5.
Screening O=C1CC[C@@H]2C[C@@]3(C[C@@H]4CCN1[C@H]24)Nc1cc([N+](=O)[O-])ccc1NC3=NCc1ccccc1 returned MT1-MMP act inh 8, UUG fidelity 2, HIV Env fusion -29 and MT1-MMP act inh RFP 0.
Screening CCOc1ccc2oc(C(=O)OCC(=O)N3CC(C)OC(C)C3)c(C)c2c1 (stereo not drawn) returned CSC inhib 1, MT1-MMP act inh 2, UUG fidelity -16 and MT1-MMP act inh RFP -1.
COc1ccccc1-n1cnc2cc(NCc3ccco3)ccc21 was read as Rce1 inh inactive, eIF4H inh -4, CSC inhib 50, MT1-MMP act inh 1, PABP polyA inh 9, UUG fidelity -9, HIV Env fusion 42 and MT1-MMP act inh RFP -9.

Bioassay records (PubChem)

An excerpt (hit frequency here may not be typical).
